Screens from PubChem.
Mtb growth = Mycobacterium tuberculosis H37Rv growth inhibition, putative kinase inhibitor library, confirmatory dose response (AID 2842). hit rate 5.2% among 24,000. M. tuberculosis H37Rv growth inhibition; higher % means a stronger effect; some inactives read as strong as hits. inhibition, % at 10 µg/mL; hits with a dose series show IC90 in µg/mL;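 active = confirmed in a dose series; inconclusive = mostly over 85% at the one dose but not retested; inactive = below 85% or not confirmed; about a fifth of its hits are not listed in these tables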;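 also: bacteria incubated one week before Alamar blue readout; 0% = bacteria only wells and 100% = bacteria with high antibiotic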
The depositor's hits bear a star; ? = inconclusive. The list is partial; count on the stated rates, not on these rows.

SMILES	Mtb growth
CCOC(=O)COc1cccc2c(=O)n(CC(=O)N3CCCCCC3)ccc12	1.8%
Cc1ccc(-c2nnn3c2nc(NCCc2c[nH]c4ccccc24)c2ccccc23)cc1	-6.6%
O=C(O)CNC(=O)/C=C1\SC(=O)NC1=O	-6.1%
CC(NC(=O)CCCc1nnc2n(C)c(=O)c3sccc3n12)c1ccc2c(c1)OCCO2 (stereo not drawn)	-10.6%
CCc1nnc(NC(=O)CSc2nc3c([nH]c4ccccc43)c(=O)n2-c2cccc(OC)c2)s1	33.6%
Nc1c(C(=O)Nc2ccc(F)cc2)sc2nc3c(c(-c4cccs4)c12)CCC3	8.6%
C=CCn1cc(C(=O)Nc2nc(C)cs2)c2nn(-c3ccccc3)c(=O)c-2c1	8.1%
Cc1ccc(CNc2nc3c(-c4ccc(C)cc4)nnn3c3ccccc23)cc1	4.0%
COc1ccc2nc(NC(=O)CN3C(=O)CCC3=O)sc2c1	-18.6%
CCOC(=O)c1nn(-c2ccc(C)cc2)c(=O)c2c(NC(=O)Cc3ccc(OCC)cc3)scc12	-4.0%
Cc1cc(C)c(S(=O)(=O)N2CCN(C(=O)c3ccccc3Cl)CC2)c(C)c1	6.8%
COc1ccc(-n2ccnc(SCC(=O)NC3CCCC3)c2=O)cc1OC	-9.4%
O=C(Nc1nc(-c2ccc(I)cc2)cs1)c1ccc(S(=O)(=O)N2CCc3ccccc3C2)cc1	8.7%
CCOCCn1ccc2c(OCC(=O)Nc3cc(C)on3)cccc2c1=O	-7.2%
COc1ccc(NC(=O)CSC2=C(C#N)C(c3ccco3)C(C(N)=O)=C(C)N2)cc1 (stereo not drawn)	-9.4%
CCOC(=O)c1ccccc1NC(=O)/C=C1/Nc2ccccc2NC1=O	4.6%
CC(=O)Nc1nnc(-c2cccc(C)c2)s1	19.9%
CC1=C(C(=O)Nc2cccc(Cl)c2)C(c2ccc(Br)cc2)NC(=O)N1 (stereo not drawn)	20.3µg/mL*
Cn1c(SCC(N)=O)nnc1-c1c[nH]c2ccccc12	-5.7%
CC1CCc2c(sc(NC(=O)c3ccc(S(=O)(=O)N4CCCCC4C)cc3)c2C#N)C1 (stereo not drawn)	3.4%
Cc1ccc(-c2nc(C(N)=O)c3[nH]c(=O)n(-c4ccc5c(c4)OCO5)c3n2)cc1	-7.0%
CCOc1ccc(-n2c(=O)[nH]c3c(C(N)=O)nc(-c4ccc(Cl)cc4)nc32)cc1	-9.8%
CCOC(=O)c1nn(-c2ccc(F)cc2)c(=O)c2c(NC(=O)c3ccccc3[N+](=O)[O-])scc12	-3.5%
COC(=O)CCc1n[nH]c(=O)[nH]c1=O	3.9%
CCc1ccc(C(=O)c2cn(Cc3ccccc3)c3cc4c(cc3c2=O)OCO4)cc1	33.1%

Three neighbouring records from above, for reference:
SMILES	Mtb growth
CCOC(=O)c1nn(-c2ccc(F)cc2)c(=O)c2c(NC(=O)c3ccccc3[N+](=O)[O-])scc12	-3.5%
COC(=O)CCc1n[nH]c(=O)[nH]c1=O	3.9%
CCc1ccc(C(=O)c2cn(Cc3ccccc3)c3cc4c(cc3c2=O)OCO4)cc1	33.1%

Back to the main list; the 6 compounds before the break are reprinted first.
SMILES	Mtb growth
CC1CCc2c(sc(NC(=O)c3ccc(S(=O)(=O)N4CCCCC4C)cc3)c2C#N)C1 (stereo not drawn)	3.4%
Cc1ccc(-c2nc(C(N)=O)c3[nH]c(=O)n(-c4ccc5c(c4)OCO5)c3n2)cc1	-7.0%
CCOc1ccc(-n2c(=O)[nH]c3c(C(N)=O)nc(-c4ccc(Cl)cc4)nc32)cc1	-9.8%
CCOC(=O)c1nn(-c2ccc(F)cc2)c(=O)c2c(NC(=O)c3ccccc3[N+](=O)[O-])scc12	-3.5%
COC(=O)CCc1n[nH]c(=O)[nH]c1=O	3.9%
CCc1ccc(C(=O)c2cn(Cc3ccccc3)c3cc4c(cc3c2=O)OCO4)cc1	33.1%
CCOc1cc(/C=C2/SC(=Nc3ccc(C)cc3C)NC2=O)ccc1O	21.3%
CCS(=O)(=O)c1ccccc1C(=O)Nc1nc(-c2ccc3c(c2)OCO3)cs1	12.1%
O=C(Nc1nnc(SCc2ccccc2F)s1)C1CC(=O)N(c2ccccc2)C1 (stereo not drawn)	9.9%
COC(=O)c1sc2nc(N)c(C#N)c(-c3ccco3)c2c1N	-11.1%
COc1ccc(NCC(=O)Nc2ncc(Cc3ccc(Cl)c(Cl)c3)s2)cc1	72.0%
O=C1Nc2ccccc2Oc2ccc(NS(=O)(=O)Cc3cccc(Cl)c3)cc21	-6.2%
COc1cc2ccccc2cc1C(=O)Nc1sccc1C(N)=O	5.4%
CCCCc1ccc(NC(=O)CSc2nc(N)c(NC(=O)c3ccco3)c(=O)[nH]2)cc1	83.5%
CCOc1ccccc1C(=O)NCCc1cc2ccc(C)c(C)c2[nH]c1=O	-1.4%
Cc1nnc(NC(=O)CSc2nc3c(c(=O)n2Cc2ccccc2)SC(C)C3)s1 (stereo not drawn)	-2.0%
COc1ccc(C(=O)Nc2cccc(-c3ccc4nncn4n3)c2)c(OC)c1	1.7%
CCOC(=O)c1ccc(-c2c(C(=O)OCC)oc3cc(O)c(CC)cc3c2=O)o1	8.8%
O=C1NC(=O)C(=Cc2nc(-c3ccccc3Cl)n3ccccc23)C(=O)N1	2.3%
O=C(Nc1nnc(-c2ccco2)o1)C1CCCCC1	50.4µg/mL*
Cc1ccc(C(=O)Nc2nc3ccc4ccccc4c3s2)c(C)c1	-2.6%
O=C1c2cccc(OCC(=O)N3CCCc4ccccc43)c2CCN1Cc1cccnc1	5.2%
COc1cccc(C(=O)Nc2nc(-c3ccc4c(c3)OCCO4)cs2)c1	82.5%
O=C(Sc1n[nH]c(=O)[nH]c1=O)c1ccc(Br)cc1	-19.2%
Cc1[nH]c2ccccc2c1/C=N/NC(=O)c1cc(-c2ccc(Br)s2)[nH]n1	12.2µg/mL*
COC(=O)c1ccc(COc2cccc3c2CCN(Cc2ccccc2F)C3=O)o1	30.6%
COC(=O)c1ccc(Cn2cnc3sc(C(N)=O)c(C)c3c2=O)cc1	-6.0%
COc1ccc2c(c1)c(=O)c(S(=O)(=O)c1ccc(C)c(C)c1)cn2CC(=O)Nc1ccc(C)cc1	-7.1%
CCCn1cc(S(=O)(=O)CC(=O)Nc2ccc(C(=O)OCC)cc2)c2ccccc21	3.7%
CCOc1cc(C(=O)Nc2nnc(-c3ccc(Br)cc3)s2)cc(OCC)c1OCC	7.1%
COc1ccc(N2CC(NC(=O)/C=C\c3ccc([N+](=O)[O-])cc3)CC2=O)cc1 (stereo not drawn)	14.2%

(continued)
SMILES	Mtb growth
COc1ccc2nc(-c3ccc(F)c(NC(=O)c4ccc(C)cc4)c3)cn2n1	-16.1%
O=C(CSc1ccc2nnc(-c3ccccc3)n2n1)NCc1ccc(F)cc1	22.7%
O=C(CSc1nnc2ccc(-c3ccccn3)nn12)Nc1cccc(F)c1	-5.7%
CCOC(=O)c1oc2ccccc2c1NC(=O)COc1ccc(C(C)C)cc1	-4.3%
Cn1c(=O)c2c(nc(NCc3ccco3)n2Cc2ccc(Cl)cc2)n(C)c1=O	-7.4%
CCc1ccc2c(c1)sc(=NC(=O)CCOc1ccccc1)n2C	-3.6%
COC(=O)COc1cc(OCC(=O)OC)c2c(-c3ccccc3)cc(=O)oc2c1	-10.4%
O=C1CC(NS(=O)(=O)c2ccccc2)CN1c1cccc(F)c1 (stereo not drawn)	-3.0%
COc1ccc(C(=O)CSc2ccc3nnc(-c4cccc(F)c4)n3n2)cc1	-9.8%
O=C(CSc1ccc2nnc(-c3ccc(Cl)cc3)n2n1)Nc1ccc2c(c1)OCO2	-1.2%
O=C(/C=C\c1ccc2c(c1)OCO2)N1CCN(c2ncnc3c2nnn3Cc2ccccc2)CC1	-1.4%
CCOC(=O)c1nn(-c2ccc(C)cc2)c(=O)c2c(NC(=O)c3cc4ccccc4oc3=O)scc12	-0.3%
CCOC(=O)COc1cc(OCC(=O)OCC)c2c3c(c(=O)oc2c1)CCC3	4.9%
Cc1ccc(C)c2[nH]c(=O)c(CCNC(=O)c3ccccc3)cc12	-12.7%
COc1ccc(Cn2cc(C(=O)c3ccc(C)cc3)c(=O)c3cc(OC)ccc32)cc1	1.7%
O=C(/C=C/c1ccc(-c2ccccc2[N+](=O)[O-])o1)c1cccs1	13µg/mL*
CCOC(=O)c1c(NC(=O)c2ccc(C#N)cc2)sc2c1CC(C)(C)NC2(C)C	4.7%
Cn1c(=O)c2c(nc(SCCN3CCOCC3)n2Cc2ccccc2Cl)n(C)c1=O	8.2%
CCOC(=O)c1nn(-c2ccc(F)cc2)c(=O)c2c(NC(=O)Cc3cccs3)scc12	-9.1%
O=C(Nc1nnc(-c2ccccc2Cl)o1)c1cccc(Oc2ccccc2)c1	0.86µg/mL*
CCCN1C(=O)/C(=C2\SC(N)=NC2=O)c2cc(Br)ccc21	2.8%
CCOC(=O)c1c(NC(=O)c2ccc(Cl)s2)sc2c1CCN(C(=O)OCC)C2	1.7%
CC(/C=N/Nc1nncc(=O)[nH]1)=C\c1ccccc1	5.7%
CC1CC(C)CN(S(=O)(=O)c2ccc(C(=O)Nc3sccc3C(N)=O)cc2)C1 (stereo not drawn)	-1.1%
O=C(Oc1coc(CSc2ncccn2)cc1=O)c1cc2ccccc2oc1=O	-5.3%

(next part)
SMILES	Mtb growth
O=C(O)c1ccc2c(c1)C(=O)N(Cc1ccc3c(c1)OCO3)C2=O	-28.5%
Cc1c(Cc2ccc3c(c2)OCO3)sc(NC(=O)C2CCCCC2)c1C(N)=O	-3.5%
CC(Nc1n[nH]c(=O)[nH]c1=O)C(=O)N/N=C/c1ccccc1Cl (stereo not drawn)	-17.7%
Cc1ccc(Nc2ccc(NCc3ccccc3)nn2)cc1Cl	100.3%
O=C1CCc2cc(S(=O)(=O)Nc3cc(C(F)(F)F)ccc3Cl)cc3c2N1CCC3	-11.7%
O=C(Nc1nnc(-c2cc(Cl)ccc2Cl)o1)c1ccccc1Cl	1.66µg/mL*
Cc1ccc(/C=C/C(=O)Nc2ccc(S(=O)(=O)N3CCCC3)cc2)o1	-0.5%
O=C(Nc1nc(-c2ccccc2)c(C(=O)c2ccccc2)s1)c1cccc(C(F)(F)F)c1	8.7%
NS(=O)(=O)c1ccc(NS(=O)(=O)c2ccc(O)c(C(=O)O)c2)cc1	-3.7%
CCCCOc1ccc(C(=O)NCc2ccco2)cc1	15.5%
CCOC(=O)CCC(=O)Nc1scc2c(C(=O)OCC)nn(-c3ccc(Cl)cc3)c(=O)c12	1.5%
COc1cc(OC)cc(-c2nnc(Nc3nc4c(OC)cccc4s3)o2)c1	62.3%
Cc1cc(Nc2ccc(C)c(Cl)c2)n2ncc(-c3ccccc3)c2n1	3.35µg/mL*
COc1cc(C)c(S(=O)(=O)Nc2ccc(-n3c(C)nc4ccccc4c3=O)cc2C)cc1C	-7.5%
Fc1ccc(Cn2cc3c(-c4ccccc4)nnc-3c3cc4c(cc32)OCCO4)cc1	35.2%
CCS(=O)(=O)c1ccc(C(=O)Nc2nc3cc(C)c(C)cc3s2)cc1	-6.4%
COc1ccc(OC)c(NC(=O)Cn2cnc3c(cnn3C(C)(C)C)c2=O)c1	-2.9%
COc1cccc(-c2ccc3nnc(SCC(=O)Nc4cc(C)on4)n3n2)c1	-5.8%
O=C(Nc1nc(-c2cc3ccccc3oc2=O)cs1)C1CCCCC1	17.5%
Cc1ccc(NC(=O)CSc2ccc3nnc(-c4ccccc4)n3n2)c(C)c1	-9.1%
CCc1ccc(OCC(O)Cn2c(SC(C)C)nc3c2c(=O)[nH]c(=O)n3C)cc1 (stereo not drawn)	20.1%
O=C(Nc1c(C(=O)Nc2ccc(F)c(Cl)c2)oc2ccccc12)c1ccc([N+](=O)[O-])cc1	-11.8%
O=C(CSc1nnc2ccc(-c3ccc4c(c3)OCO4)nn12)c1ccc(F)cc1	1.9%
Cc1ccc(C)c(NC(=O)CN2C(=O)/C(=C3\SC(=S)NC3=O)c3ccccc32)c1	4.2%
CNc1nc(Nc2ccc(F)cc2)c2nccnc2n1	7.9%

Later entries:
SMILES	Mtb growth
COc1cc(C(Nc2ccccn2)c2oc(CO)cc(=O)c2O)cc(OC)c1OC (stereo not drawn)	-13.5%
COC(=O)c1ccc(Nc2nc(-c3ccccc3)c3cc(Cl)ccc3n2)cc1	14.6%
Cc1cccc(OCC(=O)NC2CC(=O)N(c3ccc(Cl)cc3)C2)c1 (stereo not drawn)	10.1%
Cc1ccc(-c2nnc(NC(=O)C3CCN(S(=O)(=O)c4ccc(Cl)cc4)CC3)o2)c(C)c1	2.2%
O=C(Nc1nnc(-c2ccccn2)o1)c1cccc(Cl)c1	81.4%
Cc1cccc(NC(=O)c2cnc3sccn3c2=O)c1C	-3.5%
Cc1ccc(Cn2nnc3c(SCc4cccnc4)ncnc32)cc1	?
Cc1ccc2nc(NC(=O)CSc3nnc4ccc(-c5ccncc5)nn34)sc2c1	-2.0%
c1ccc(-c2oc3ncnc(N4CCN(Cc5ccc6c(c5)OCO6)CC4)c3c2-c2ccccc2)cc1	-2.6%
COc1ccc(-n2c(SCC(=O)N3CCOCC3)nnc2-c2c[nH]c3ccccc23)cc1	1.9%
Cn1c(=O)[nH]c(=O)c2c1nc(N=Nc1c(O)[nH]c3ccccc13)n2CCCOc1ccccc1	3.3%
O=C(CSc1ccc2nnc(-c3cccc(F)c3)n2n1)Nc1ccc(F)cc1F	0.3%
COc1ccc(C(=O)CSC2=C(C#N)C(c3cccs3)CC(=O)N2)cc1 (stereo not drawn)	42.4%
CC(=O)Cn1c(=O)c2c(nc3n(-c4cccc(Cl)c4)c(C)c(C)n23)n(C)c1=O	-3.5%
COc1ccc(-c2cc(C(F)(F)F)c(C#N)c(SCCC(=O)O)n2)cc1	-2.0%
CC(Oc1cccc(Br)c1)C(=O)Nc1ccc2c(c1)OCO2 (stereo not drawn)	14.3%

Random excerpt: five entries already listed.
SMILES	Mtb growth
O=C(Nc1nnc(-c2ccccn2)o1)c1cccc(Cl)c1	81.4%
c1ccc(-c2oc3ncnc(N4CCN(Cc5ccc6c(c5)OCO6)CC4)c3c2-c2ccccc2)cc1	-2.6%
Cc1ccc2nc(NC(=O)CSc3nnc4ccc(-c5ccncc5)nn34)sc2c1	-2.0%
COc1ccc(-n2c(SCC(=O)N3CCOCC3)nnc2-c2c[nH]c3ccccc23)cc1	1.9%
CC(=O)Cn1c(=O)c2c(nc3n(-c4cccc(Cl)c4)c(C)c(C)n23)n(C)c1=O	-3.5%
